Source: PubChem (several laboratories)
RecA intein inh = Mtb RecA intein splicing inhibitors, primary screen, biochemical, fluorescence, HTS. Protein RecA (Mycobacterium tuberculosis (strain ATCC 25618 / H37Rv)), P9WHJ3. cell-free RecA intein splicing. inhibition, %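 (about 9 µM by stock and volumes)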. 290,000 compounds, 0.75% hits; in the data active means inhibition above about 30%; inconclusive means no clear call, values can overlap the other calls;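 further: 0% = vehicle wells and 100% = reference inhibitor control wells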
Target sequence (P9WHJ3 whole entry, looked up): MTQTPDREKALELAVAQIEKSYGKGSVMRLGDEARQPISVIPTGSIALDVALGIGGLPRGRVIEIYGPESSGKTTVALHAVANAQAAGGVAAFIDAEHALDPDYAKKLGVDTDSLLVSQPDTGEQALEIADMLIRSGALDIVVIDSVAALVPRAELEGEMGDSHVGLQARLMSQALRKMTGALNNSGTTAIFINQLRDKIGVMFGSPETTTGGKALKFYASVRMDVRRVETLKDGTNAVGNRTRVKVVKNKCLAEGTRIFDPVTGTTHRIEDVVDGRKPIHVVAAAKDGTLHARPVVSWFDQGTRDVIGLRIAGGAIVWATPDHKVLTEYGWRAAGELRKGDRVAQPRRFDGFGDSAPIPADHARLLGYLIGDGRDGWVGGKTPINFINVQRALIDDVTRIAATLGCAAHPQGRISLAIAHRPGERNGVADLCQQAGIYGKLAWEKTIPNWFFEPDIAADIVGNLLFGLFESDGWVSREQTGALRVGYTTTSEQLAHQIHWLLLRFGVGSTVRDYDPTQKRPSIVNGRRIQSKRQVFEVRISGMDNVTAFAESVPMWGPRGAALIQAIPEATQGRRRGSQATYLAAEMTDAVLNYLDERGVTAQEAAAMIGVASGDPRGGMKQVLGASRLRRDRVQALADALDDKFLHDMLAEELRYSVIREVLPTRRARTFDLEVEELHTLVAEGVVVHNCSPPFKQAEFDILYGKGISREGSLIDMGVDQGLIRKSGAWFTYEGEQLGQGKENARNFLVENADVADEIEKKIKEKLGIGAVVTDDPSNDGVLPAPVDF
Arbovirus inh = antivirals against arbovirus infection, primary screen, cell-based, full library, 10K replicate subset; arbovirus infection cell-based antiviral screen; inhibition, % at 10 µM; 200,000 compounds, 0.37% hits; AID 1251, 2008;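 active means inhibition from about 30%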;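 further: bluetongue infection of BSR cells; cell survival read as ATP light after 72 h; 0% = infected wells without compound and 100% = uninfected wells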
Mtb H37Rv = M. tuberculosis H37Rv growth inhibitors, H37Rv strain (AID 1626). M. tuberculosis H37Rv growth inhibition; higher % means a stronger effect. inhibition, % at 10 µM; hits with a dose series show IC50 in µM. 220,000 compounds, 0.95% hits;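 active means confirmed in a dose series; inconclusive means inhibition above 80% but not taken into the dose series; inactive means below 80% or under 30% at every dose of the series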;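 further: bacteria incubated seven days before Alamar blue readout; 0% = bacteria only wells and 100% = bacteria with antibiotic wells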
Mtb betalactam = beta-lactam sensitization of Mtb H37Rv, H37Rv; M. tuberculosis H37Rv growth with meropenem, percent inhibition; hits of this screen are not shown here; inhibition, % at 25 µM; 330,000 compounds, 0.27% hits;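 active means about 74% or more and at least 40 points above the plate without the antibiotic, then above 30% in a dose series; inconclusive means first-round hits that could not be retested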;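 further: growth measured after seven days incubation then overnight dye step; 0% = bacteria only wells and 100% = bacteria with antibiotic; twin plates without the antibiotic show which effects depend on it; some results filed as inactive read as strong as hits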
YopH PTP inh = YopH tyrosine phosphatase inhibitors, primary screen, biochemical, fluorescence Ex485/Em525; YopH tyrosine phosphatase [Yersinia enterocolitica]; inhibition, %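 (about 10 µM by stock and volumes)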; 140,000 compounds, 0.16% hits; AID 898, 2007;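 active means inhibition of 50% or more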;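 further: controls were vehicle for no effect and minimum signal wells for full effect; inactives centre near -20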
Arbovirus inh repeat = further read-out of Arbovirus inh, marked with its call; inhibition, %; measured here: 10K subset replicate screen; many hits read low in the repeat;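 first of two repeat runs on a subset; 0% = infected and 100% = uninfected wells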
Active calls of the source: *; ? = inconclusive; nt = not tested or not shown.

The opening 15 records, ahead of the listing:
SMILES | RecA intein inh | Arbovirus inh | Mtb H37Rv | Mtb betalactam | YopH PTP inh | others
O=[N+]([O-])c1cccc(N/N=C/c2cccc3ccccc23)c1 | 3.0 | -3 | ? | 94 | -9
O=C(Nc1ccncc1)c1cccc(S(=O)(=O)N2CCc3ccccc32)c1 | 4.7 | nt | nt | 5 | nt
CCCCOC(=O)CCNc1n[nH]c(=O)[nH]c1=O | 0.1 | -1 | -8% | 3 | -30
O=C(C1CCC1)N1CCCc2cc(S(=O)(=O)N3CCN(c4ccccc4)CC3)ccc21 | 4.4 | nt | nt | -1 | nt
COc1ccc(Cn2c(O)c(C=Nc3ccc(C)cc3)c3ccccc3c2=O)cc1 | -3.5 | -23 | -8% | -7 | -20
O=C(NCCCn1ccnc1)c1ccc(COc2ccccc2)o1 | -0.9 | nt | nt | 6 | nt
Cc1ccc(CNC(=O)CCNS(=O)(=O)c2ccc(C)cc2)cc1 | -1.2 | -6 | 0% | -7 | -8
CC(C)c1ccc(NC(=O)CCC(=O)NCc2ccco2)cc1 | 3.9 | nt | nt | -16 | nt
CCNC(=S)N/N=C/c1c(Cl)cccc1Cl | 2.2 | 11 | 4% | 11 | -11
CCC1CN(C(=O)N2CCC(C(=O)NCCc3ccccc3OC)CC2)c2ccccc2O1 (stereo not given) | 0.1 | nt | nt | 1 | nt
O=C(COc1ccccc1)Nc1ccc(N2CCN(C(=O)c3cccs3)CC2)cc1 | -3.7 | -31 | -2% | 25 | nt
COc1ccc(NC(=O)CN(C)CC(=O)Nc2ccc(Cl)c(S(=O)(=O)N(C)C)c2)cc1 | 0.7 | -3 | 6% | 2 | nt
CCCN1CCN(CC(=O)Nc2nncs2)CC1 | -0.1 | nt | nt | 2 | nt
CCn1c(CC(=O)Nc2cccc(OC)c2)nnc1SCC(=O)Nc1nccs1 | 2.4 | 2 | -12% | -6 | 32
COC(=O)C1=C(c2cc3ccccc3s2)C[C@@H]2CC[C@H]1N2C(=O)N1CCCCC1 | 14 | nt | 7% | -8 | nt

All compounds of this part, from the first entry:
SMILES | RecA intein inh | Arbovirus inh | Mtb H37Rv | Mtb betalactam | YopH PTP inh | others
O=[N+]([O-])c1cccc(N/N=C/c2cccc3ccccc23)c1 | 3.0 | -3 | ? | 94 | -9
O=C(Nc1ccncc1)c1cccc(S(=O)(=O)N2CCc3ccccc32)c1 | 4.7 | nt | nt | 5 | nt
CCCCOC(=O)CCNc1n[nH]c(=O)[nH]c1=O | 0.1 | -1 | -8% | 3 | -30
O=C(C1CCC1)N1CCCc2cc(S(=O)(=O)N3CCN(c4ccccc4)CC3)ccc21 | 4.4 | nt | nt | -1 | nt
COc1ccc(Cn2c(O)c(C=Nc3ccc(C)cc3)c3ccccc3c2=O)cc1 | -3.5 | -23 | -8% | -7 | -20
O=C(NCCCn1ccnc1)c1ccc(COc2ccccc2)o1 | -0.9 | nt | nt | 6 | nt
Cc1ccc(CNC(=O)CCNS(=O)(=O)c2ccc(C)cc2)cc1 | -1.2 | -6 | 0% | -7 | -8
CC(C)c1ccc(NC(=O)CCC(=O)NCc2ccco2)cc1 | 3.9 | nt | nt | -16 | nt
CCNC(=S)N/N=C/c1c(Cl)cccc1Cl | 2.2 | 11 | 4% | 11 | -11
CCC1CN(C(=O)N2CCC(C(=O)NCCc3ccccc3OC)CC2)c2ccccc2O1 (stereo not given) | 0.1 | nt | nt | 1 | nt
O=C(COc1ccccc1)Nc1ccc(N2CCN(C(=O)c3cccs3)CC2)cc1 | -3.7 | -31 | -2% | 25 | nt
COc1ccc(NC(=O)CN(C)CC(=O)Nc2ccc(Cl)c(S(=O)(=O)N(C)C)c2)cc1 | 0.7 | -3 | 6% | 2 | nt
CCCN1CCN(CC(=O)Nc2nncs2)CC1 | -0.1 | nt | nt | 2 | nt
CCn1c(CC(=O)Nc2cccc(OC)c2)nnc1SCC(=O)Nc1nccs1 | 2.4 | 2 | -12% | -6 | 32
COC(=O)C1=C(c2cc3ccccc3s2)C[C@@H]2CC[C@H]1N2C(=O)N1CCCCC1 | 14 | nt | 7% | -8 | nt
O=C(CSc1ncccn1)NCCC1=CCCCC1 | 1.0 | nt | nt | -9 | nt
CCOC(=O)c1sc2ncn(C(C)C(=O)OCC)c(=O)c2c1C (stereo not given) | 0.1 | 6 | -11% | 59 | -43
COC(=O)c1cc(NC(=O)CSc2nncn2C)cc(C(=O)OC)c1 | -0.3 | 2 | -3% | -7 | -33
N=c1c(-c2nc3ccccc3[nH]2)cc(C(=O)c2ccco2)nn1-c1ccccc1 | 0.5 | -7 | ? | 62 | -35
COc1ccc(C)cc1NC(=O)Cn1cnnn1 | -2.1 | 8 | 7% | -3 | nt
CC(NCc1ccc(-c2ccccc2)cc1)C(O)c1ccccc1 (stereo not given) | 6.8 | -44 | 29% | 84 | 1
CS(=O)(=O)N1CC(C(=O)NN)Oc2ccc(Cl)cc21 (stereo not given) | -0.3 | 1 | -5% | 1 | -31
CC(C)=CCCC1(C)C=Cc2c(c(C)cc3c2[nH]c2cc(O)ccc23)O1 (stereo not given) | 0.9 | nt | 11% | -7 | nt
Cc1cc(C)n(C(C)CNS(=O)(=O)c2ccccc2)n1 (stereo not given) | 1.9 | nt | nt | -7 | nt
C/C(N)=C(/C#N)C(=O)COC(=O)CNC(=O)c1ccc(Cl)cc1Cl | 4.0 | 3 | 4% | 5 | nt

New compounds follow:
SMILES | RecA intein inh | Arbovirus inh | Mtb H37Rv | Mtb betalactam | YopH PTP inh | others
O=C(CCc1nc2ccccc2c(=O)[nH]1)N1CCN(S(=O)(=O)c2cccc(F)c2)CC1 | 5.3 | nt | nt | -13 | nt
O=C(NCc1cccs1)c1noc2c1CCCC2 | nt | -10 | 3% | -5 | -34
COCCn1ccc2c(OCC(=O)Nc3cc(OC)ccc3OC)cccc2c1=O | -1.8 | nt | nt | 1 | nt
COC(=O)CSc1nnc(CNc2ccc(Cl)cc2)n1-c1ccccc1 | 0.5 | 3 | -8% | 95 | -56
Nc1cnccc1Oc1cccc(C(F)(F)F)c1 | -0.9 | nt | nt | -1 | nt
CCCCC1=CC2=CC(=O)C(C)(OC(=O)CCC(=O)OC)C(=O)C2=CO1 (stereo not given) | -9.2 | nt | 0% | -1 | nt
Cc1ccccc1-c1nc(SCc2ccccn2)c2c(=O)n(C)c(=O)n(C)c2n1 | 3.2 | -9 | 7% | -2 | nt
COc1ccc(NC(=O)C2=Cc3ccccc3OC2)cc1 | 9.7 | 7 | ? | 10 | nt
Cc1ccc(C)c2nc(SCC(=O)N3CCCc4ccccc43)c(C#N)cc12 | -1.2 | -4 | -1% | 40 | -7
CCCCN(CCCC)C(=O)CN(C)S(=O)(=O)c1ccc2c(c1)n(C)c(=O)c(=O)n2C | -0.3 | 4 | 5% | -6 | 4
O=C(N/N=C1\CC2CC=CC12)c1ccc(O)cc1 (stereo not given) | -5.5 | 17 | -14% | 0 | nt
[N-]=[N+]=NC(c1ccccc1)c1nc2ccccc2[nH]c1=O (stereo not given) | 0.3 | nt | nt | ? | nt
COC(=O)C1=C(N)OC2=C(C(=O)CCC2)C1c1ccccc1OC (stereo not given) | -1.9 | nt | -2% | 1 | nt
CCSc1ncc(/C=N/Nc2ccccc2)n1C | 1.2 | -39 | ? | 97 | -31
C=CCN(CC=C)C(=S)Nc1ccc(OC)c(OC)c1 | -1.7 | -3 | -6% | -1 | nt
COc1ccc(C(=O)CC(=O)C(=O)Nc2ccc(C)c(C)c2)cc1 | 3.3 | nt | nt | -4 | nt
CC(=O)O/N=C1\C(=O)N(Cc2ccc(C)cc2)c2ccccc21 | nt | 1 | 9% | nt | nt
COCc1c(C(=O)OCc2nc(N)nc(Nc3ccccc3C)n2)oc2ccccc12 | 1.7 | -3 | -6% | 5 | 6
C/C(=N/NC(=O)C(O)(c1ccccc1)c1ccccc1)c1ccc([N+](=O)[O-])o1 | -6.2 | -15 | ? | 100 | nt
O=C(CNC(=O)c1cccs1)c1ccc(F)cc1 | nt | -2 | 5% | 3 | -11
CC(C(=O)NC1CCCC1)N(Cc1ccc2c(c1)OCO2)C(=O)c1snc(C(N)=O)c1N (stereo not given) | 1.8 | -1 | 1% | -3 | -41
O=C(c1ccc2[nH]c3c(c2c1)CCCC3)N1CCN(c2ccc(F)cc2)CC1 | 4.6 | -27 | 19% | 58 | -2
O=C(COc1ccccc1F)NC1CC1 | 2.6 | 1 | -9% | 5 | 14
C=CCSc1nnc(-c2ccc(Cl)cc2Cl)o1 | 1.1 | 5 | nt | 97 | -23
COC(=O)[C@H](C)NC(=O)COc1ccccc1 | -1.6 | 1 | -3% | 7 | -9

The list goes on.
SMILES | RecA intein inh | Arbovirus inh | Mtb H37Rv | Mtb betalactam | YopH PTP inh | others
CCc1nnc(NC(=O)C2=CCN(S(=O)(=O)c3ccccc3)CC2)s1 | -1.9 | nt | 0% | -9 | nt
CC(=O)Nc1ccccc1C(=O)C(=O)Nc1ccc(C(=O)N2CCOCC2)cc1 | -2.5 | 4 | -1% | 1 | nt
CCCCNC(=S)NNC(=O)c1ccoc1C | -1.5 | -4 | -2% | -10 | 1
O=C(O)C1CC(=O)N(CCc2ccc(F)cc2)C1 (stereo not given) | -2.3 | nt | nt | 2 | nt
Cc1cc(O)c(-c2cc(O)c(C)cc2O)cc1O | 30 | nt | -5% | -8 | nt
Cc1ccc(C(C)CCN2CCC(n3nccc3NC(=O)c3ccccc3)CC2)o1 (stereo not given) | 2.7 | nt | nt | 1 | nt
Cn1cnc2cc(OC(=O)c3ccccc3)ccc21 | -4.4 | 2 | 14% | 6 | 5
O=C(COc1cccc2ccccc12)N1c2ccccc2CCc2ccccc21 | 20 | -16 | -2% | 4 | 1
COc1ccc(C(CNC(=O)Nc2ccc(Cl)cc2)N2CCN(C)CC2)cc1 (stereo not given) | 2.9 | nt | nt | -5 | nt
Clc1ccc2nncn2n1 | -0.1 | 14 | 3% | 5 | nt
Cn1cnc(S(=O)(=O)N2CCN(C(c3ccc(F)cc3)c3ccc(F)cc3)CC2)c1 | 4.2 | nt | nt | 0 | nt
COc1ccc(CCN(Cc2ccccn2)C(=S)Nc2cccc(SC)c2)cc1OC | 0.1 | 5 | 0% | 0 | nt
Cc1ccc(-n2ncc3c2CCCC3NC(=O)c2cnccn2)cc1C (stereo not given) | -0.9 | nt | nt | 2 | nt
O=c1c2[nH]c3cccc(Cl)c3c2ncn1CC1CCCO1 (stereo not given) | 1.4 | nt | -2% | -10 | nt
C#CCOCCOCCOCCNc1nc(N2CCN(C(=O)C(Cc3ccc(O)cc3)n3cc(C(N)CC(C)C)nn3)CC2)nc(N2CCN(C(=O)C(Cc3cc4ccccc4[nH]3)n3cc(C(N)C(C)CC)nn3)CC2)n1 (stereo not given) | 0.8 | -5 | nt | 99 | nt
CCS(=O)(=O)c1ccc(-c2csc(-c3ccccc3)n2)c(Cl)c1Cl | 7.9 | 1 | 1% | 72 | 14
CCOC(=O)C1=C(N)OC2=C(C(=O)CCC2)C1c1ccccc1OC (stereo not given) | nt | 4 | 5% | 1 | nt
O=S(=O)(Nc1ccc2cn[nH]c2c1)c1ccc(Cl)s1 | 3.4 | 15 | 7% | -6 | nt
O=C(O)CSc1nnc(Cn2c(=O)sc3ccccc32)n1-c1cccc(Cl)c1 | -3.6 | 2 | -3% | -1 | -27
Cc1ccc(C(=O)COC(=O)CNC(=O)Cc2ccccc2)cc1[N+](=O)[O-] | -1.7 | -1 | nt | -15 | -34
COc1cc(S(=O)(=O)N(Cc2cccc(OC)c2OC)CC2CCCO2)ccc1-n1cnnn1 (stereo not given) | -0.3 | nt | 5% | 0 | nt
O=C(CSc1nc2ccccc2[nH]1)N1CCN(C(=O)c2ccco2)CC1 | -2.1 | 4 | 3% | -3 | -19
COc1cc(Cl)ccc1OCc1cc(C(=O)N2CCCCCCC2)no1 | 0.6 | nt | nt | -3 | nt
COc1ccc(CN(CC(=O)NCc2ccccc2)C(=O)c2csnn2)cc1 | 2.9 | -2 | -3% | -1 | nt
COc1cc(S(=O)(=O)N(CCc2ccccc2)Cc2cccs2)ccc1-n1cnnn1 | 2.5 | -7 | -4% | -11 | -6
CSc1cc(-c2ccco2)oc1C(=O)c1ccco1 | -6.0 | nt | nt | -7 | nt
Cc1cc(C)n(CC(O)Cn2c3ccccc3c3ccccc32)c(=O)n1 (stereo not given) | -0.6 | 19 | 2% | 9 | -38 | Arbovirus inh repeat=7
Cc1ccc(C(=O)Nc2nnc(S(=O)(=O)N3CCCCCC3)s2)cc1 | -0.8 | nt | nt | 3 | nt

These rows are one share of the data, so the mix of outcomes need not match the whole.
